HSD17B inh = qHTS Assay for Inhibitors of HSD17B4, hydroxysteroid (17-beta) dehydrogenase 4; 3-hydroxyacyl-CoA dehydrogenase type-2 (Homo sapiens), Q99714; recombinant HSD17B10, NADH fluorescence kinetic; many of its hits are not listed in these tables; Potency, µM (highest dose often 57.1 µM), inactives show top-dose activity change, negative = inhibition, most hits filed as inhibitors; 7.6% of 75,000 active; AID 893, 2007; active means well fitted inhibition curve with a large enough effect; inconclusive means small, poorly fitted or top-dose-only effect; inactive means no such curve, though single readings can be large or run the other way;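 further: the protocol describes HADH2 (HSD17B10) and not the HSD17B4 of the title; nearly all actives have a fitted effect of over 70% in size; most hits overshoot -100% by far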
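Enzyme plus compound, 15 min room temperature; substrate mix added (NAD+ 1 mM, beta-hydroxybutyryl-CoA 90 uM final); plates read kinetically for NADH fluorescence. HADH2 was His-tagged, E. coli-derived, 20 nM.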
* hit, by the source's call; ? = inconclusive; & = joins results of further samples; [ ] = another dose, or the depositor's remark. On the % scale 0 is the no-effect control and ±100 the full control effect; potency means the concentration at half of the fitted maximal effect. Some of the compounds tested; the hit share may differ from the screen's.

SMILES	HSD17B inh
COc1ccc2[nH]c(=O)c(CN(C(C)=O)C3CCCCC3)cc2c1	25µM*
c1ccc(CSc2nncn2-c2ccccn2)cc1	8%
C=CCSC1=C(C#N)C(c2ccccc2OC)CC(=O)N1 (stereo unspecified)	-18%
CSc1ccccc1NC(=O)CN(Cc1ccccc1)S(C)(=O)=O	-6%
O=C(O)c1nn(-c2ccccc2)nc1-c1nn(-c2ccccc2)nc1C(=O)O	4%
CCOC(=O)C1CCCN(C(=O)c2sc3nc(-c4ccccc4)cn3c2C)C1 (stereo unspecified)	3%
O=C(c1ccccc1)c1ccc(N2CCNCC2)cc1	?
CC1(C)CC(=O)c2sc(NS(C)(=O)=O)nc2C1	0%
COc1c2c(cc3occ(-c4ccc5c(c4)OCO5)c(=O)c13)OC(C)(C)C=C2	?
CCOC(=O)NC(CC(=O)O)c1ccc(OCC)cc1 (stereo unspecified)	15%
Cc1cc(C)nc(NS(=O)(=O)c2ccc(NC(=O)c3ccc4c(c3)OCO4)cc2)n1	5%
C=CCn1c(SCC(=O)c2cccs2)nc2sc(CC)cc2c1=O	-7%
CC(=O)[C@@]1(N=Nc2ccc(S(N)(=O)=O)cc2)CCOC1=O	-1%[11.4 µM]
O=C(CCCc1ccccc1)NCCN1CCOCC1	-4%
CCC(Sc1nnc(-c2ccc(C)c(Cl)c2)n1CC)C(=O)Nc1nccs1 (stereo unspecified)	-6%
O=C(c1ccncc1)N1CCC2(CC1)CN(c1ccncc1)C2	7%
COc1ccccc1CNC(=O)c1ccc(S(=O)(=O)N(C)C)cc1	-1%
Cc1cc(C)n(C(=O)C(C)N2C(=O)c3ccccc3C2=O)n1 (stereo unspecified)	0%
Cc1cc2cc(CNC(=O)NC3CCCCC3)ccc2[nH]1	-10%
CCSc1nnc2c(Cl)cc(Cl)cn12	7%
CCOC(=O)c1cccc(NC(=O)CN2C(=O)C3C4C=CC(C4)C3C2=O)c1 (stereo unspecified)	-3%
COc1ccc(CCN=C2SCC(=O)N2C)cc1OC	12%
CCOc1ccc(C2=Nn3c(nnc3-c3ccc(OC)cc3)SC2)cc1	-1%
COc1ccc(-c2oc3cc(O[C@@H]4OC(CO)C(O)C(O)C4O)c(OC)c(O)c3c(=O)c2OC)cc1O (stereo partly specified)	-16%
CC(C)=CCC/C(C)=C/CO/N=C1/C[C@@H](O)[C@@H](O)[C@@H]2[C@@H]3C(=O)N(c4cccc(Oc5ccccc5)c4)C(=O)[C@H]3CC[C@H]12	3%[11.4 µM]

More structures
SMILES	HSD17B inh
CCNc1ncc2ncc(=O)n(C)c2n1	25µM*
O=c1[nH]c2cc([N+](=O)[O-])c([N+](=O)[O-])cc2[nH]c1=O	4%
O=C(NCc1ccccc1)c1cnsn1	2%
O=C(CSc1nnc(-c2ccco2)o1)c1ccc(F)c(F)c1	-5%
O=C(O)C1C2CCC(O2)C1C(=O)NCCC1=CCCCC1 (stereo unspecified)	13%
N#Cc1cc2cc3c(cc2nc1SCC(=O)OC1CCCCC1)OCO3	6%
O=C(CSc1nnnn1-c1ccccc1)N1CCc2ccccc21	-2%
COc1ccc(Cc2nnc(SCC(=O)N3CCc4ccccc4C3)o2)cc1	-16%
O=C(COc1ccc(F)c(Cl)c1)c1ccc[nH]1	?
CC(C)C1N=C2c3ccccc3N=C(SCC(=O)c3ccc(O)c(O)c3)N2C1=O (stereo unspecified)	15%
COc1ccc(C(=O)N2CCC3(CCN(Cc4nccs4)CC3)CC2)cc1	4%
Cc1[nH]nc2nc3c(c(OC(=O)c4ccccc4)c12)c(=O)n(C)c(=O)n3C	0%
NC(=O)CSc1ncc(-c2ccccc2)[nH]1	9%
COc1ccccc1CNc1nc(-c2ccccc2CN(C)C)nc2ccccc12	-2%
CCCNC(=O)c1[nH]c(C)c(C(C)=O)c1C	9%
COC(=O)CCCC(=O)OC	6%
CCCNC(=O)C1=C(C)C(=O)OC12CCC(C)CC2 (stereo unspecified)	-5%
CC1OC(OCC2OC(Oc3c(-c4ccc(O)c(O)c4)oc4cc(O)cc(O)c4c3=O)C(O)C(O)C2O)[C@@H](O)C(O)C1O (stereo partly specified)	-5%
CN(C)S(=O)(=O)N1CCN(S(=O)(=O)c2ccc(F)cc2)CC1	-3%
CC(=O)Oc1cc(C(F)(F)F)ccc1C(=O)O	13µM*
O=C(c1ccncc1)N1CCC2(CC1)CCN(c1ccccc1)CC2	-3%
CCOc1cccc(C2c3c(oc4cc(C)c(C)cc4c3=O)C(=O)N2CCCN(C)C)c1 (stereo unspecified)	3%
CC(=O)Nc1ccc(-c2nc(C)c(C(C)=O)n2O)cc1	?
COc1ccc(NC(=O)c2oc3ccccc3c2NC(=O)c2ccc(OC)c(OC)c2)c(OC)c1	13%
CC(C)=CCC(C)(C)C1OCCN1C(=O)c1ccccc1 (stereo unspecified)	-1%

(cont.)
SMILES	HSD17B inh
Cc1ccc(N)cc1[N+](=O)[O-]	2%
CSCC[C@H](NC(=O)OC(C)(C)C)c1nnc(SCC(=O)Nc2c(C)cccc2C)o1	2%
Cc1c(C(=O)O)nn(-c2ccccc2)c(=O)c1C#N	-3%
CN1C(=O)/C(=C2\SC(=S)N(C(CCC(=O)O)C(=O)O)C2=O)c2ccccc21 (stereo unspecified)	-18%
O=C(CSc1nc2ccccc2c(=O)n1-c1ccccc1)N1CCN(CCO)CC1	-4%
CC(C)(C)NC(=O)C1N(c2cccnc2)C(=O)C2C(C(=O)Nc3ccccc3F)C3(C)C=CC21O3 (stereo unspecified)	-6%
OC12CCCCC1C(c1ccc3c(c1)OCO3)N(Cc1ccccc1F)CC2 (stereo unspecified)	-4%
CC1CCC2C(=O)N3CCCC3C(=O)N2C1c1ccc(Br)cc1 (stereo unspecified)	5%&4%[11.4 µM]
N#Cc1c(SCc2ccccc2)nc(N2CCOCC2)c2c1CCCC2	25µM*
COC(=O)C1=C2N(Cc3ccccc3)C(C)=C(C(=O)OC)C(c3ccccc3)N2C(=O)[C@](O)(C(=O)OC)C1 (stereo partly specified)	1%&3%[11.4 µM]
c1ccc(OCCSc2nc3ccccc3o2)cc1	-3%
CCn1c(=NC(=O)CSC(C)=O)sc2cc(OC)ccc21	11%
CSc1nc2oc3c(c2c2nncn12)CC(C)(C)SC3	?
C=C(C)CSc1nnc([C@H](CCSC)NC(=O)OC(C)(C)C)o1	-5%
CCOC(=O)N1CC=C2C(C#N)=C(N)C(C#N)(C#N)[C@H](c3ccc(OC(C)C)c(OCC)c3)[C@H]2C1	6%
O=C(COc1ccccc1)N1CCN(S(=O)(=O)Cc2ccccc2)CC1	-1%
COc1ccc(C2=NOC(CN3C(=O)c4ccccc4S3(=O)=O)C2)cc1 (stereo unspecified)	?
CC1(c2ccncc2)Nc2ccccc2-c2nc3ccccc3n21 (stereo unspecified)	?
O=C(O)COc1nsnc1N1CCOCC1	8%
CCOC(=O)C1CCN(C(=O)c2c(-c3c(F)cccc3Cl)noc2C)CC1	3%
O=C1CC(C(=O)NC2CCCCC2)C(c2ccccc2)O1 (stereo unspecified)	-1%
Cc1ccc(-c2nn(CC(=O)NCC3CCCO3)c(=O)c3ccccc23)cc1 (stereo unspecified)	2%
O=S(=O)(NCc1ccc2c(c1)OCO2)c1cnc[nH]1	3%
COc1ccc(Oc2ncc3nc(-c4cn(C)c5ccccc45)c(=O)n(C4CC4)c3n2)cc1	7%
CCCCn1nnnc1SCC(=O)Nc1ccc(C)cc1	2%

Continuation.
SMILES	HSD17B inh
CC(=O)OC(/C(O)=C(\C#N)c1nc2ccccc2[nH]1)c1ccccc1 (stereo unspecified)	?
CC(=O)c1ccc(NC(=O)CSC(C)C)cc1	2%
Nc1c(C(=O)c2ccccc2)oc2ccc(Br)cc12	7%
COc1cc(-c2nnc3sc(-c4ccccn4)nn23)cc(OC)c1OC	-13%
O=C(O)C1Cc2ccccc2CN1C(=O)c1ccccc1 (stereo unspecified)	-2%
CCOC(=O)c1ccc(NC(=O)CCc2nc(-c3ccccc3)no2)cc1	-5%
CC1(C)C(=O)C(c2ccccc2)=C2CN3C(=O)N(CCc4ccccc4)C(=O)C3(Cc3ccc(C(F)(F)F)cc3)C=C21 (stereo unspecified)	-7%
CC(CS(=O)(=O)c1cccc2cccnc12)N1CCCCC1 (stereo unspecified)	-29%
Cc1ccc2nc(NC(=O)C3CCCN(S(=O)(=O)c4cccc5nonc45)C3)sc2c1 (stereo unspecified)	23%
COC(=O)c1ccccc1NC(=O)Cn1cnc2ccc(S(=O)(=O)N3CCC(C)CC3)cc2c1=O	14%
CCC1=C(OC(=O)N(CC)CC)N2C(=O)OC(=NCC3CC3)[C@]2(Cc2ccccc2)[C@H]2C1=CC[C@H]1C(=O)N(CC)C(=O)[C@H]12	-5%
COC(=O)c1ccc(CN2[C@H](C(=O)OC)C[C@@]3(O)[C@@H](O)[C@@H](O)[C@@H](O)C[C@@H]23)cc1	6%
O=C(CSCc1cnn(-c2ccccc2)c1-n1cccc1)NCCN1CCOCC1	16%
N#Cc1cn(CCOc2ccccc2F)c2ccccc12	-9%
COC(=O)c1ccc(C(NC(=O)OCc2ccccc2)/C(=C/[C@@H](C)C(=O)NC2CCCCC2)c2cccnc2)cc1 (stereo partly specified)	-9%
Cc1cc(=O)c2cc(Cl)ccc2[nH]1	-13%
COc1ccc(CNc2nc(SCC(=O)NCc3ccco3)nc3ccccc23)cc1	-25%
COCCNC(=O)C(c1ccc(C)o1)N(Cc1ccccc1)C(=O)Cn1nnc2ccccc21 (stereo unspecified)	9%
O=C(CCNS(=O)(=O)c1cccs1)Nc1ccccc1F	-4%
COCCNCCOCCOc1cccc(OC)c1	5%
O=C(c1ccco1)N1CCN(S(=O)(=O)c2ccc(Br)s2)CC1	?
Cc1ccc(CNC(=O)C2CCCN(S(=O)(=O)c3cccnc3)C2)cc1 (stereo unspecified)	-2%
CCOC(=O)c1c(C)c(C(=O)NCc2ccccn2)c(C)n1C	5%
O=C(Nc1ccccc1)N1CC[C@@]2(CCCN(C(=O)c3ccncc3)C2)C1	6%
c1ccc(Cn2nnc3c(N4CCc5ccccc54)ncnc32)cc1	?

Going on with the list:
SMILES	HSD17B inh
COc1ccc(NC(=O)c2ccc3c(c2)C(=O)N(Cc2cccnc2)C3=O)c(OC)c1	2%
CCCCn1c(SCC(=O)c2cc(OC)ccc2OC)nc2cc(S(N)(=O)=O)ccc21	?
CCOc1ccc(-c2nnc(-c3snc(-c4ccc(F)cc4)c3N=CN(C)C)o2)cc1	?
COc1cc(-c2nnc3sc(C4CCCCC4)nn23)cc(OC)c1OC	-28%
O=C(O)c1ccc(S(=O)(=O)NC2CCCCC2)cc1	6%
COC(=O)[C@@]1(Cc2ccc(F)cc2)[C@H]2c3cc(C(=O)N(C)C)n(Cc4cccc5ccccc45)c3C[C@H]2CN1C(=O)c1ccccc1	5%
c1cc(C(c2nnnn2C2CCCCC2)N2CCN3CCCC3C2)ccn1 (stereo unspecified)	10%
Cc1nnc(Nc2ccc3c(c2)OCO3)c2ccccc12	88%[activator]
CN(C)CCCNCCCN	7%
COC(=O)c1ccccc1NC(=O)CN1C(=O)CSC1=O	1%
CCc1ccc2c(CN3CCc4ccccc43)cc(=O)oc2c1	-3%
c1ccc(-c2cn3c4c(sc3n2)CCCC4)cc1	5%
CCN(CC)CCCNC(=O)c1c(O)c2c([nH]c1=O)CCCC2	-1%
COC(=O)CSc1nnc([C@H](CC(C)C)NC(=O)OC(C)(C)C)o1	3%
COc1ccc(CCn2c(C)cc(C(=O)CSc3nnnn3-c3ccccc3)c2C)cc1OC	-7%
COc1ccc(N/C(C)=C2/C(=O)C(=O)N(CCO)C2c2ccc(Br)cc2)cc1 (stereo unspecified)	-2%
Cc1cc(C)cc(CSc2nnc(C)c(=O)[nH]2)c1	11%
COCCNC(=O)C1CC(=O)N(C2CCCC2)C1 (stereo unspecified)	3%
Cc1noc(C)c1COC(=O)c1ccc(-c2nc3ccccc3s2)s1	16µM*
COc1ccc(-c2nnc(SCCOc3cccc(C)c3)n2N)cc1	-9%
CCCCN(C)CCCNC(=O)c1ccc(N2CCCC2=O)cc1	-1%

Grouped by structure: the entries above containing two or more sulfur atoms (15)
SMILES	HSD17B inh
CSc1ccccc1NC(=O)CN(Cc1ccccc1)S(C)(=O)=O	-6%
CC1(C)CC(=O)c2sc(NS(C)(=O)=O)nc2C1	0%
C=CCn1c(SCC(=O)c2cccs2)nc2sc(CC)cc2c1=O	-7%
CCC(Sc1nnc(-c2ccc(C)c(Cl)c2)n1CC)C(=O)Nc1nccs1 (stereo unspecified)	-6%
CN(C)S(=O)(=O)N1CCN(S(=O)(=O)c2ccc(F)cc2)CC1	-3%
CSCC[C@H](NC(=O)OC(C)(C)C)c1nnc(SCC(=O)Nc2c(C)cccc2C)o1	2%
CN1C(=O)/C(=C2\SC(=S)N(C(CCC(=O)O)C(=O)O)C2=O)c2ccccc21 (stereo unspecified)	-18%
CCn1c(=NC(=O)CSC(C)=O)sc2cc(OC)ccc21	11%
CSc1nc2oc3c(c2c2nncn12)CC(C)(C)SC3	?
C=C(C)CSc1nnc([C@H](CCSC)NC(=O)OC(C)(C)C)o1	-5%
Cc1ccc2nc(NC(=O)C3CCCN(S(=O)(=O)c4cccc5nonc45)C3)sc2c1 (stereo unspecified)	23%
O=C(CCNS(=O)(=O)c1cccs1)Nc1ccccc1F	-4%
O=C(c1ccco1)N1CCN(S(=O)(=O)c2ccc(Br)s2)CC1	?
CCCCn1c(SCC(=O)c2cc(OC)ccc2OC)nc2cc(S(N)(=O)=O)ccc21	?
Cc1noc(C)c1COC(=O)c1ccc(-c2nc3ccccc3s2)s1	16µM*

A different layout for some results above:
CCCCn1c(SCC(=O)c2cc(OC)ccc2OC)nc2cc(S(N)(=O)=O)ccc21
  HSD17B inh = ?

CCOc1ccc(-c2nnc(-c3snc(-c4ccc(F)cc4)c3N=CN(C)C)o2)cc1
  HSD17B inh = ?

COc1cc(-c2nnc3sc(C4CCCCC4)nn23)cc(OC)c1OC
  HSD17B inh = -28%

O=C(O)c1ccc(S(=O)(=O)NC2CCCCC2)cc1
  HSD17B inh = 6%
